High-throughput results deposited in PubChem by several laboratories.
Autofluor counter – compound fluorescence in toxin protease inhibitor counterscreen. compound autofluorescence counterscreen, microsphere flow cytometry; active compounds read high. actives 3.1% (n = 360,000). fluorescence intensity (test concentration not listed). AID 624483;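 active means at least 3 SD above the mean of all compounds, about 16000 in these data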;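 further: 100 nL of 1 mM stock went into each well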
Sa ugtP lethal – growth inhibition of S. aureus ugtP deletion strain; S. aureus RN4220 ugtP deletion, OD600 growth, 16 h; some inactives read as strong as hits; growth inhibition, % (concentration not given with the values); actives 0.54% (n = 330,000); AID 1259309;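 active means z-score under -3 and OD600 up to 0.15 on both plates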;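 further: plate controls were untreated wells for no effect and antibiotic for full effect; wells of about 80 µL received 100 nL stock; the first replicate is given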
BJeLR viability – kills HRASV12-expressing BJeLR cells; AID 1554; actives 0.17% (n = 300,000); BJeLR (HRASV12) viability, CellTiter-Glo ATP luminescence, 48 h; reference of the scale not given here; inhibition, % (no concentration beside the values);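 active means replicate mean above 50%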;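 further: 50 nL library stock added to about 25 µL; numbers are from one replicate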
Mtb hypoxia rep – inhibitors of hypoxia-regulated fluorescent reporter in Mycobacterium tuberculosis | fluorescence inhibition, % (concentration not given with the values) | actives 0.1% (n = 300,000) | AID 1159583 | M. tuberculosis hypoxia-regulated fluorescent reporter, fluorescence;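 active means 35 to 45% if threefold the growth effect, above 45% if 1.5-fold the growth effect; inactive means the rest, general growth blockers included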;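 further: wells of about 50 µL received 100 nL stock; 0% = vehicle wells and 100% = reference inhibitor wells; whole bacteria with a GFP reporter of the hypoxia response; strong numbers were not always called active; many hits fall short of the cut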
PrP 5UTR inh – suppresses PrP 5' UTR mRNA reporter expression | cell-based PrP 5' UTR mRNA reporter, plate reader | inhibition, % (no concentration beside the values) | actives 0.35% (n = 340,000);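 active means every replicate at 50% or more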;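 further: 0 = median of the neutral control wells; tested in H4 reporter cells; numbers are from one replicate; inactives centre near -14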
RN4220 kill – kills Staphylococcus aureus RN4220; actives 0.33% (n = 330,000); inhibition, % (test concentration not listed); S. aureus RN4220 growth, OD600, 16 h;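 active means z-score of -3 or lower and OD600 up to 0.18 on both plates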;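 further: plate controls were untreated cells for no effect and reference antibiotic for full effect; stock transfer was 100 nL into about 80 µL; one replicate is shown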
Mtb hypoxia rep growth – also measured in Mtb hypoxia rep; calls as there; growth inhibition, %; measured here: M. tuberculosis growth (absorbance);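 0% = vehicle and 100% = reference antibiotic; read after six days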
Active calls of the source: *.

What do the screens show for `O=C(/C=C/c1c(F)cccc1Cl)N1CCc2ccccc2C1`?
Autofluor counter: 3195; Sa ugtP lethal: -1; BJeLR viability: -6; Mtb hypoxia rep: 0; PrP 5UTR inh: -4; RN4220 kill: 0.9; Mtb hypoxia rep growth: 6

What do the screens show for `O=C(COc1nsnc1N1CCOCC1)Nc1cccc(Cl)c1`?
Autofluor counter: 6208; Sa ugtP lethal: -24; BJeLR viability: 0; Mtb hypoxia rep: 3; PrP 5UTR inh: -14; RN4220 kill: 3.4; Mtb hypoxia rep growth: 2

How did Cc1cc(N)n(-c2ncnc3scc(-c4ccccc4)c23)n1 do in these assays?
Autofluor counter: 4527; Sa ugtP lethal: 4; BJeLR viability: -4; Mtb hypoxia rep: 5; PrP 5UTR inh: -3; RN4220 kill: 7.2; Mtb hypoxia rep growth: 6

Results for COc1cc(C=CC(=O)NCc2ccc3c(c2)cc(C)n3C)cc(OC)c1OC ?
Sa ugtP lethal: -1; Mtb hypoxia rep: -6; RN4220 kill: 6.3; Mtb hypoxia rep growth: -2

How did COc1ccc(OC)c(C2=NOC(C(=O)NCCN3CCOCC3)C2)c1 (stereo unspecified) do in these assays?
Autofluor counter: 15634; Sa ugtP lethal: 5; BJeLR viability: 6; Mtb hypoxia rep: 7; PrP 5UTR inh: -16; RN4220 kill: 5.2; Mtb hypoxia rep growth: 10

How did CC1(C)Cc2c(c(-c3ccccc3)nc3[nH][nH]c(=O)c23)CO1 do in these assays?
Autofluor counter: 3600; Sa ugtP lethal: 4; BJeLR viability: -1; PrP 5UTR inh: -1; RN4220 kill: 6.1

What do the screens show for `N#C/C(=C\c1cccc(OCC(=O)O)c1)c1nc2ccccc2[nH]1`?
Autofluor counter: 3848; Sa ugtP lethal: 0; BJeLR viability: -6; Mtb hypoxia rep: -4; PrP 5UTR inh: -4; RN4220 kill: 3.8; Mtb hypoxia rep growth: 1

How did COc1cccc(CN2CCN(C3CCN(c4cccc(C)c4C)CC3)CC2CCO)c1 (stereo unspecified) do in these assays?
Autofluor counter: 4376; Sa ugtP lethal: 0; BJeLR viability: 12; Mtb hypoxia rep: -6; PrP 5UTR inh: 4; RN4220 kill: 0.6; Mtb hypoxia rep growth: 3

Results for COc1ccc(CC(=O)NNc2ncnc3c2cnn3C)cc1 ?
Autofluor counter: 2451; Sa ugtP lethal: 6; BJeLR viability: 8; Mtb hypoxia rep: 2; PrP 5UTR inh: -16; RN4220 kill: 4.2; Mtb hypoxia rep growth: 6

How did O=S(=O)(c1ccccc1)c1cnc2ccccc2c1 do in these assays?
Autofluor counter: 4091; Sa ugtP lethal: 3; BJeLR viability: 6; Mtb hypoxia rep: 1; PrP 5UTR inh: -38; RN4220 kill: 3.5; Mtb hypoxia rep growth: 4

How did COc1ccccc1N1CCN(N=Cc2cccc(Cl)c2)CC1 do in these assays?
Sa ugtP lethal: 41; Mtb hypoxia rep: 6; RN4220 kill: 0.3; Mtb hypoxia rep growth: -6

Results for COc1ccc(N2CCN(C(=O)c3ccc4c(c3)CC(c3ccccc3)OC4=O)CC2)cc1 (stereo unspecified) ?
Autofluor counter: 6022; Sa ugtP lethal: 15; Mtb hypoxia rep: 5; PrP 5UTR inh: -6; RN4220 kill: 2.2; Mtb hypoxia rep growth: 6

What do the screens show for `CN(c1ccccc1C(=O)N1CCc2ccccc2C1)S(C)(=O)=O`?
Autofluor counter: 22577*; Sa ugtP lethal: 5; BJeLR viability: 0; Mtb hypoxia rep: -1; PrP 5UTR inh: -29; RN4220 kill: 2.4; Mtb hypoxia rep growth: -2

Results for CCN(Cc1ccccc1)C(=O)c1c[nH]c2ccc(S(=O)(=O)N(C)CCC#N)cc2c1=O ?
Autofluor counter: 2455; Sa ugtP lethal: 6; BJeLR viability: -18; Mtb hypoxia rep: -1; PrP 5UTR inh: -27; RN4220 kill: 2.6; Mtb hypoxia rep growth: -7

Results for CCCCN(CCCC)CCC(O)c1cc2c(Cl)cc(Cl)cc2c2cc(C(F)(F)F)ccc12 (stereo unspecified) ?
Autofluor counter: 4510; Sa ugtP lethal: -7; PrP 5UTR inh: -10; RN4220 kill: 1.3

How did CC(=O)N/C(=N\OCc1ccccc1Cl)c1nonc1NC(C)=O do in these assays?
Autofluor counter: 8048; BJeLR viability: 6; PrP 5UTR inh: -20

What do the screens show for `Cc1cc(C)nc(N2N=C(C(F)(F)F)CC2=O)n1`?
Autofluor counter: 4389; Sa ugtP lethal: 6; BJeLR viability: -11; Mtb hypoxia rep: 5; PrP 5UTR inh: -20; RN4220 kill: 3.1; Mtb hypoxia rep growth: -1

How did CC1CCc2sc(C(=O)N(C)CC(=O)Nc3cccc(F)c3)cc2C1 (stereo unspecified) do in these assays?
Autofluor counter: 5193; Sa ugtP lethal: 3; BJeLR viability: -4; Mtb hypoxia rep: 8; PrP 5UTR inh: -62; RN4220 kill: -2.8; Mtb hypoxia rep growth: -11

Results for Cc1ccc(Nc2c(-c3ccc(N4CCOCC4)cc3)nc3ncccn23)cc1C ?
Autofluor counter: 6050; Sa ugtP lethal: 6; BJeLR viability: -11; Mtb hypoxia rep: 6; PrP 5UTR inh: 0; RN4220 kill: 4.2; Mtb hypoxia rep growth: 2

Results for COc1ccc(N2CCN(C(=O)[C@H](C)NC(=O)c3ccccc3Cl)CC2)cc1 ?
Autofluor counter: 4054; Sa ugtP lethal: 9; BJeLR viability: -2; Mtb hypoxia rep: -4; PrP 5UTR inh: 8; RN4220 kill: 5.7; Mtb hypoxia rep growth: -4

How did Brc1cccc(CSc2nnc(-c3ccncc3)o2)c1 do in these assays?
Autofluor counter: 5043; Sa ugtP lethal: 2; Mtb hypoxia rep: 5; PrP 5UTR inh: 42; RN4220 kill: 9.1; Mtb hypoxia rep growth: 13

Results for CCN(CC)CC(=O)Nc1sc(C)cc1C(=O)c1ccc(C)cc1 ?
Autofluor counter: 4200; Sa ugtP lethal: 39; BJeLR viability: -13; Mtb hypoxia rep: 5; PrP 5UTR inh: 10; RN4220 kill: 2.0; Mtb hypoxia rep growth: 9

What do the screens show for `O=C(Cc1ccccc1)Nc1ccc(N2CCN(Cc3ccccc3F)CC2)cc1`?
Autofluor counter: 17943*; Sa ugtP lethal: -4; BJeLR viability: -6; Mtb hypoxia rep: 8; PrP 5UTR inh: -13; RN4220 kill: 1.1; Mtb hypoxia rep growth: 18

What do the screens show for `CCC1CSC(Nc2ccc(C(=O)/C=C/c3ccc(OC)c(OC)c3)cc2)=N1` (stereo unspecified)?
Autofluor counter: 8917; Sa ugtP lethal: -8; BJeLR viability: 15; Mtb hypoxia rep: 15; PrP 5UTR inh: -23; RN4220 kill: -0.8; Mtb hypoxia rep growth: 2

Results for CNC(=O)c1ccc(CNC(=O)OCC(F)(F)F)cc1 ?
Autofluor counter: 2323; Sa ugtP lethal: 9; BJeLR viability: 5; Mtb hypoxia rep: 20; PrP 5UTR inh: -16; RN4220 kill: 4.5; Mtb hypoxia rep growth: 13

How did S=c1[nH]nc(CCc2ccccc2)n1-c1ccccc1 do in these assays?
Autofluor counter: 6748; Sa ugtP lethal: 0; BJeLR viability: 8; Mtb hypoxia rep: 8; PrP 5UTR inh: -15; RN4220 kill: 4.2; Mtb hypoxia rep growth: -1

Results for COc1ccc(N2CCN(CCC(N)=O)CC2)cc1 ?
Autofluor counter: 5218; Sa ugtP lethal: -2; BJeLR viability: 9; PrP 5UTR inh: -2; RN4220 kill: -0.4

How did COCC(=O)OCC(=O)Nc1cc(C(C)(C)C)nn1-c1ccccc1 do in these assays?
Autofluor counter: 3628; Sa ugtP lethal: 1; BJeLR viability: -10; Mtb hypoxia rep: 5; PrP 5UTR inh: -10; RN4220 kill: 7.0; Mtb hypoxia rep growth: 8

What do the screens show for `O=C1C2C3C=CC(C4CC34)C2C(=O)N1CCc1ccccc1` (stereo unspecified)?
Autofluor counter: 7675; BJeLR viability: 5; PrP 5UTR inh: -35

How did CCCC1(CCC)NC(=O)N(CC(=O)N2CCN(C(=O)c3ccco3)CC2)C1=O do in these assays?
Autofluor counter: 4828; Sa ugtP lethal: 1; BJeLR viability: -14; PrP 5UTR inh: -8; RN4220 kill: 0.8

How did O=C(NCc1ccccc1C(F)(F)F)C1CC(c2cc(C(F)(F)F)cc(C(F)(F)F)c2)=NO1 (stereo unspecified) do in these assays?
Autofluor counter: 4017; Sa ugtP lethal: -16; BJeLR viability: 0; Mtb hypoxia rep: 7; PrP 5UTR inh: -12; RN4220 kill: -1.3; Mtb hypoxia rep growth: 6

Results for Cc1cccc(Nc2nc(N3CCOCC3)nc(N3CCOCC3)n2)c1 ?
Autofluor counter: 4096; Sa ugtP lethal: -10; BJeLR viability: 10; Mtb hypoxia rep: -7; PrP 5UTR inh: -16; RN4220 kill: 2.5; Mtb hypoxia rep growth: 10

Results for O=C1/C(=C/c2ccncc2)SC(=S)N1C1CCCCC1 ?
Autofluor counter: 2123; Sa ugtP lethal: -1; BJeLR viability: -8; Mtb hypoxia rep: 4; PrP 5UTR inh: -67; RN4220 kill: -3.2; Mtb hypoxia rep growth: 6

What do the screens show for `Nc1nc(SCC(=O)NCC2CCCO2)n[nH]1` (stereo unspecified)?
Autofluor counter: 3610; Sa ugtP lethal: 5; BJeLR viability: 1; PrP 5UTR inh: -18; RN4220 kill: 1.9

Results for CCOC(=O)c1[nH]c2ccc(OC)cc2c1NC(=O)c1ccc(OC)c(OC)c1 ?
Autofluor counter: 7879; Sa ugtP lethal: -9; BJeLR viability: -2; Mtb hypoxia rep: -5; PrP 5UTR inh: -70; RN4220 kill: -4.1; Mtb hypoxia rep growth: -6

How did COCCSc1nnc(NC(=O)Cc2ccc(OC)cc2)s1 do in these assays?
Autofluor counter: 4266; Sa ugtP lethal: -2; BJeLR viability: 5; Mtb hypoxia rep: 9; PrP 5UTR inh: -43; RN4220 kill: 2.7; Mtb hypoxia rep growth: 4

What do the screens show for `c1ccc(N2CCN(C3CCSC3)CC2)cc1` (stereo unspecified)?
Autofluor counter: 11001; Sa ugtP lethal: -5; BJeLR viability: 2; Mtb hypoxia rep: -1; PrP 5UTR inh: 2; RN4220 kill: -6.6; Mtb hypoxia rep growth: 8

How did COC(C(=O)NNS(=O)(=O)c1ccccc1[N+](=O)[O-])c1ccccc1 (stereo unspecified) do in these assays?
Sa ugtP lethal: 13; BJeLR viability: -14; Mtb hypoxia rep: -7; PrP 5UTR inh: -14; RN4220 kill: 2.9; Mtb hypoxia rep growth: -6

Results for O=C(CSc1nnc(NC(=O)c2ccco2)s1)Nc1ccccc1 ?
Autofluor counter: 4048; Sa ugtP lethal: -1; BJeLR viability: 1; Mtb hypoxia rep: -8; PrP 5UTR inh: 5; RN4220 kill: 3.6; Mtb hypoxia rep growth: -6

Results for O=C(NN=Cc1ccccc1OCc1ccccc1Cl)c1cccnc1 ?
Sa ugtP lethal: 12; Mtb hypoxia rep: 17; RN4220 kill: 14; Mtb hypoxia rep growth: 3

Results for C#CCOCCOCCOCCNc1nc(N2CCN(C(=O)C(CCC(=O)O)n3cc(C(N)C(C)CC)nn3)CC2)nc(N2CCN(C(=O)C(CCC(=O)O)n3cc(C(N)C(C)CC)nn3)CC2)n1 (stereo unspecified) ?
Sa ugtP lethal: 0; Mtb hypoxia rep: 3; RN4220 kill: 4.2; Mtb hypoxia rep growth: -4

How did O=C(O)c1cc(-c2c[nH]c3ccccc23)nc2ccc3ccccc3c12 do in these assays?
Autofluor counter: 2105; BJeLR viability: -5; PrP 5UTR inh: -3

How did Cc1cccc(NC(=O)CSc2nc3[nH]ncc3c(=O)n2-c2ccccc2)c1 do in these assays?
Sa ugtP lethal: -2; BJeLR viability: 10; Mtb hypoxia rep: 5; RN4220 kill: 13; Mtb hypoxia rep growth: 3

3 entries drawn at random from those above, as already listed:
What do the screens show for `CCC1CSC(Nc2ccc(C(=O)/C=C/c3ccc(OC)c(OC)c3)cc2)=N1` (stereo unspecified)?
Autofluor counter: 8917; Sa ugtP lethal: -8; BJeLR viability: 15; Mtb hypoxia rep: 15; PrP 5UTR inh: -23; RN4220 kill: -0.8; Mtb hypoxia rep growth: 2

How did COC(C(=O)NNS(=O)(=O)c1ccccc1[N+](=O)[O-])c1ccccc1 (stereo unspecified) do in these assays?
Sa ugtP lethal: 13; BJeLR viability: -14; Mtb hypoxia rep: -7; PrP 5UTR inh: -14; RN4220 kill: 2.9; Mtb hypoxia rep growth: -6

Results for CCOC(=O)c1[nH]c2ccc(OC)cc2c1NC(=O)c1ccc(OC)c(OC)c1 ?
Autofluor counter: 7879; Sa ugtP lethal: -9; BJeLR viability: -2; Mtb hypoxia rep: -5; PrP 5UTR inh: -70; RN4220 kill: -4.1; Mtb hypoxia rep growth: -6
